# Screening data: PubChem BioAssay, National Center for Advancing Translational Sciences (NCATS)
# Vaccinia mCherry: inhibitors of vaccinia virus infection (mCherry reporter signal). AID 720579. 310,000 compounds, 0.63% hits. Vaccinia virus mCherry reporter infection, fluorescence; about a quarter of the inactives have no number. Potency, µM (doses to about 36.5 µM), for the others: at the highest dose activity change, negative = inhibition, hits mostly inhibitors; active = well fitted inhibition curve with a large enough effect; inconclusive = small, poorly fitted or top-dose-only effect; inactive = no such curve, though single readings can be large or run the other way; tested in A549 cells; further: nearly all actives have a fitted effect of over 35% in size; inactives centre near -10
# Vaccinia Venus: inhibitors of vaccinia virus (Venus reporter). 330,000 compounds, 0.46% hits. Potency, µM (top dose mostly 36.5 µM), without a hit: top-dose activity change, negative = inhibition, usual class: inhibitors. Vaccinia virus Venus reporter expression, fluorescence. AID 720580; active means well fitted inhibition curve with a large enough effect; inconclusive means small, poorly fitted or top-dose-only effect; inactive means no such curve, though single readings can be large or run the other way; tested in A549 cells; further: nearly all actives have a fitted effect of over 30% in size; inactives centre near -10
# Numbers without * were called inactive; i = inactive; ? = inconclusive; nt = no result given; & = joins results of further samples; [ ] = dose if it differs, or a comment. On the % scale 0 is the no-effect control and ±100 the full control effect; potency means the concentration at half of the fitted maximal effect.
SMILES,Vaccinia mCherry,Vaccinia Venus
COCc1cc(N2CCCCC2)nc(-c2ccccc2)n1,-1%,4%
Cn1c(=O)[nH]c2nc[nH]c2c1=O,-8%&-6%,-24%&2%
COC(=O)CNC(c1ccccc1)c1cc(Br)ccc1NC(=O)c1cc(OC)c(OC)c(OC)c1 (stereo not drawn),-9%,-4%
O=c1cc(CO)oc(CN2CCC(Cc3ccccc3)CC2)c1O,nt,2%
CC(=O)c1c(C)[nH]c(C(=O)OCC(=O)NCc2ccccc2)c1C,-14%,-23%
Nc1cc2c(cc1Br)-c1ccccc1C2=NO,?,?
NCC12CC3CC(C1)CC(c1ccc(Cl)cc1)(C3)C2,?,13µM*
C=CCn1c(O)c(N=NC(=S)Nc2ccccc2C)c2cc(S(=O)(=O)N3CCOCC3)ccc21,-19%,-10%
Cc1ccc(OCCn2cc(C(=S)N3CCCC3)c3ccccc32)cc1C,4µM*,-25%
O=C(CSc1nc2ccccc2n1CC(=O)Nc1ccc(F)cc1F)Nc1ccc(F)cc1,-8%,-6%
Cc1nn(CC(=O)Nc2ccccn2)c(=O)c2ccccc12,i,-14%
CCN(CC)S(=O)(=O)c1cccc(C(=O)N2CCCCC2)c1,nt,-21%
O=C(/C=C/c1cccc(F)c1)Nc1cc(S(=O)(=O)N2CCOCC2)ccc1Cl,?,?
CCN1CCN(Cc2cccc(Oc3ccccc3)c2)CC1,i,-15%
CCOc1cc(/C=C2\CCCC(C(=O)C(F)(F)F)=C2O)ccc1O,-29%,-19%
COC(=O)c1ccc(COC(=O)c2ccc(CS(=O)(=O)c3ccc(C)cc3)cc2)cc1,1%,-8%
COc1ccc(C2Nc3ccccc3C(=O)N2c2ccc(C)cc2)cc1Cn1nnc2ccccc21 (stereo not drawn),0%,-18%
COc1cccc2cc(-c3nc(-c4cccs4)no3)c(=O)oc12,-5%,3%
Cc1ccc(C)c(N2CCN(c3cc(C)nc4c(-c5ccc(Cl)cc5)c(C)nn34)CC2)c1,-2%,1%
Cc1cc(C)c(C(=O)COC(=O)CCNS(=O)(=O)c2c(Cl)cccc2Cl)cc1C,i,-5%
CCCn1nc2cc(C(=O)NCc3ccc(OC)cc3)ccc2c1OCC,-4%,-15%
O=C(CCCc1ccccc1)NCCc1ccc(F)cc1,-11%,-25%
Cc1ccc(S(=O)(=O)N2CCN(C(=O)COC(=O)C3CCC3)CC2)cc1,i,-3%
CC(C)(C)OC(=O)N1CCCC(C(=O)Nc2cccc(C(=O)N3CCCC3)c2)C1 (stereo not drawn),i,-13%
COc1ccccc1-c1cc(C2CC2)nc(N)c1C#N,-14%,-3%

# Profiles, quoted from the list.
# `O=C(/C=C/c1cccc(F)c1)Nc1cc(S(=O)(=O)N2CCOCC2)ccc1Cl` as listed: Vaccinia mCherry: ?; Vaccinia Venus: ?
# `Cc1ccc(S(=O)(=O)N2CCN(C(=O)COC(=O)C3CCC3)CC2)cc1` as listed: Vaccinia mCherry: i; Vaccinia Venus: -3%

# (next part)
SMILES,Vaccinia mCherry,Vaccinia Venus
COC(=O)c1nc2n(n1)C(c1cccc(Cl)c1)C1=C(CC(C)(C)CC1=O)N2 (stereo not drawn),i,-4%
CCc1nnc(NC(=O)c2cc(-c3cccnc3)nc3ccccc23)s1,-6%,?
Clc1ccc(CN2CCc3nc(N4CCN(c5ccccn5)CC4)ncc3C2)cc1,-21%,-27%
C=CCOc1c(Br)cc(/C=N/O)cc1OCC,-22%,-23%
O=C(Nc1cccc(-c2nnc(-c3ccccc3)o2)c1)C1CC1,-19%,-13%
O=c1c2ccccc2nc(-c2ccc(Cl)cc2Cl)n1-c1nccs1,-24%,-27%
COc1ccc(Cl)cc1NC(=O)Cn1c(=O)n(Cc2ccc(F)cc2)c(=O)c2cccnc21,-7%,-11%
N#Cc1c(-n2ncnc2-c2ccc(F)cc2)sc2c1CCCCC2,-22%,-9%
CN1CCN(CCN2CCn3c2nc2ccccc23)CC1,nt,-18%
CC1CCc2c(sc3nn[nH]c(=O)c23)C1 (stereo not drawn),-24%,-11%
CC1CCCC(NC(=O)CCNC(=O)c2ccc(Br)cc2)C1C (stereo not drawn),-16%,-12%
Cc1nnc(CN(C)Cc2cn[nH]c2-c2ccc(-c3ccccc3)cc2)o1,i,-2%
COc1cccc(CCNC(=O)C2CCCN(c3ncnc4c3nc3n4CCCCC3)C2)c1OC (stereo not drawn),i,-14%
CCCCOc1ccc(C(=O)NCCC(=O)NCCCC(=O)OCC)cc1,i,-9%
CCN(CC)CCCn1c2c(c(SCC(=O)Nc3ccccc3Cl)nc1=O)CCC2,i,-15%
COc1ccccc1Cn1c(C)c(C(=O)NCc2ccc(C#N)cc2)sc1=O,8%,5%
Cc1ccc(NC(=O)c2ccc3[nH]c(C)cc(=O)c3c2)cc1,1%,-5%
CCNC(=S)NNC(=O)c1cc(CC(C)C)nc2ccccc12,?,-8%
N=c1c2c(-c3ccccc3)c(-c3ccccc3)n(Cc3ccco3)c2ncn1CCCO,-7%,-8%
CNC(=S)N(Cc1cccs1)Cc1cc2ccc(OC)cc2[nH]c1=O,-25%,-23%
N#CC1(NC(=O)COC(=O)c2nc(Cl)ccc2Cl)CCCCC1,-8%,4%
COCCn1nnnc1CN(Cc1cccnc1)Cc1cc2cc(OC)ccc2[nH]c1=O,-17%,-9%
CCCC(=O)Nc1nnc(COC)s1,i,-12%
Cc1ccc(Cn2ncc(Cl)c(Cl)c2=O)cc1,-22%,?
CC(=O)Nc1cccc(NC(=O)CSc2nccn2Cc2ccco2)c1,-11%&-10%,-5%&-18%

# The list continues:
SMILES,Vaccinia mCherry,Vaccinia Venus
Cc1ccc(Cl)cc1N(CC(=O)N1CCCCCC1)S(C)(=O)=O,-15%,-12%
O=C(Nc1ccc(Cl)cc1)N1CCN(c2ccc3nnc(-c4ccc(F)cc4)n3n2)CC1,?,11µM*
O=C(COc1cccc(F)c1)Oc1ccc(C(=O)c2ccccc2)cc1,-14%,-3%
O=[N+]([O-])c1ccc(SCc2c(F)cccc2Cl)nc1,-8%,-9%
O=C(O)c1csc(-c2cccc(Cl)c2)n1,-12%,-5%
CN1[C@@H]2CC[C@H]1CC(OC(=O)c1c[nH]c3ccccc13)C2 (stereo partly drawn),-4%,-12%
CC(C)NC(=O)N[C@H]1CC[C@H](CC(=O)NCc2ccc(Oc3ccccc3)cc2)O[C@@H]1CO,-10%,-23%
CC(=O)Nc1ccc(S(=O)(=O)Nc2ccc(S(=O)(=O)N3CCCC3)cc2)cc1,-11%,-3%
COc1ccc(NC(=O)N(Cc2cc3cc(OC)ccc3[nH]c2=O)CC2CCCO2)cc1 (stereo not drawn),-8%,-7%
NC(C(=O)O)[C@H](O)C(=O)O (stereo partly drawn),-1%,-10%
COc1ccc(NC(=O)COC(=O)Cc2c(F)cccc2Cl)cc1OC,i,-2%
COc1cc(OC)cc(C(=O)N[C@H](C(=O)NC2=NCCS2)C(C)C)c1,-14%,-10%
Cc1ccc(C(=O)NCC(=O)NCc2cc(=O)n(C)c(=O)n2C)cc1,i[7.34 µM],0%[7.34 µM]
COC(=O)c1cccc(Nc2nc(-c3ccncc3)nc3ccccc23)c1,i,-22%
O=C1N=C(N2CCOCC2)S/C1=C/c1cc2c(cc1[N+](=O)[O-])OCO2,-4%[7.34 µM],-5%[7.34 µM]
COc1ccc(OC)c(C(=O)N2CCCC(Nc3ccc(F)cc3)C2)c1 (stereo not drawn),-18%,-8%
COC(=O)c1ccc(C(=O)OC)c(NC(=O)COC(=O)C2CCCCC2)c1,-17%,-13%
CC(C)C1C(=O)N(Cc2cn(CC3CCCCC3)nn2)CCS(=O)(=O)N1Cc1ccc(-c2ccc(Cl)nc2)cc1 (stereo not drawn),-28%,-26%
CCCc1cc(=O)[nH]c(SCC(=O)NN(c2ccccc2)c2ccccc2)n1,-3%,-12%
CC(C)Oc1ccc(CNC(=O)c2ccc(Cn3c(=O)c4cccn4c4cccnc43)cc2)cc1,i,-19%
Clc1ccc2oc(-c3cccnc3)nc2c1,-5%,-3%
O=C(CN1CCN(C(=O)c2ccco2)CC1)Nc1ccc(Cl)c(C(F)(F)F)c1,nt,-2%
O=C(CN1C(=O)c2cccc3cccc1c23)N1CCN(c2cccc(Cl)c2)CC1,nt,-10%
C=CCN(CC=C)Cc1cc(=O)oc2cc(C)c(C)cc12,20%,-3%
CCOc1ccccc1NC(=O)c1ccc2ccccc2c1,-11%,-3%

# Next entries follow.
SMILES,Vaccinia mCherry,Vaccinia Venus
CCCc1nnc(NC(=O)CCC(=O)N2CCN(CCOC(c3ccccc3)c3ccccc3)CC2)s1,-1%,-20%
CCCCNC(=O)Nc1ccccc1C(=O)Nc1ccc(OC)cc1,nt,-11%
CCOc1ccc(-c2nc(Cn3c(=O)cc(-c4ccccc4)c4c(C)nn(C)c43)c(C)o2)cc1,i,-10%
Cn1c(Cn2c(=O)sc3ccccc32)nnc1SCC(=O)NCC1CCCO1 (stereo not drawn),-13%,-7%
O=C(C1CC1)N1N=C(c2ccc(F)cc2)CC1(O)C(F)(F)F (stereo not drawn),-16%,-12%
O=C(CN1CCOCC1)NCc1ccccc1Cl,-1%,18%
CCC(OC(=O)CC1Sc2ccccc2NC1=O)C(=O)NCC1CCCO1 (stereo not drawn),7%,-13%
CCOC(=O)C1=C(CSc2nc(C)ccc2C#N)OC(N)=C(C#N)C1c1cccc(OC)c1OC (stereo not drawn),nt,-6%
COc1ccc(-c2oc3ccc(N4CCOCC4)cc3c2C#Cc2ccc(N)cc2)cc1,-4%,-29%
CCc1ccc(-n2nc(C)c3c(C(=O)Nc4cc(C)ccc4C)cc(C)nc32)cc1,-26%,-26%
Cc1cc(=O)[nH]c(N2CCN(Cc3ccccc3)CC2)n1,-10%,-10%
CC1Cc2ccccc2N1C(=O)COC(=O)CCc1nc2ccccc2c(=O)[nH]1 (stereo not drawn),i,-3%
O=C(NCc1ccccc1)NC1CCCCC1,-21%,-3%
Cc1c(Cl)ccc2sc(NC(=O)c3ccc(S(=O)(=O)N4CCCc5ccccc54)cc3)nc12,-11%,-15%
COc1ccc(C2C3(C#N)C(N)=NC(OC)(OC)C23C#N)cc1 (stereo not drawn),?,-14%
CCN(CC)CCCOc1ccc(Cl)c(Cl)c1,-20%,-15%
COc1ccc(-c2ccc(CCC(=O)O)n2NC(=O)c2ccc(C(C)(C)C)cc2)cc1,-18%,-6%
COc1ccc(C2=NN3C(C2)c2ccccc2OC3c2cccs2)cc1 (stereo not drawn),-5%,-10%
CN(C)c1ncnc(N(C)C)c1[N+](=O)[O-],-11%,2%
Cc1nc2ccccc2n1CC(=O)OCC(=O)NCCc1ccccc1,nt,11%
Cc1ccc(S(=O)(=O)Nc2cc(C(F)(F)F)ccc2N2CCOCC2)cc1C,-9%,-9%
Cc1ccc(/C=N/NC(=O)CN2CCN(Cc3ccccc3Cl)CC2)o1,i,20%
Nc1cccc(-c2ccc(CO)o2)c1,-5%,-9%
O=C1NC2(CCCc3ccccc32)C(=O)N1CCOc1ccc(Br)cc1 (stereo not drawn),-35%,-22%
COc1ccc(CCC(=O)O)c(O)c1,i,-1%

# Pulled by compound from the list above (2):
SMILES,Vaccinia mCherry,Vaccinia Venus
CCc1ccc(-n2nc(C)c3c(C(=O)Nc4cc(C)ccc4C)cc(C)nc32)cc1,-26%,-26%
CCCc1nnc(NC(=O)CCC(=O)N2CCN(CCOC(c3ccccc3)c3ccccc3)CC2)s1,-1%,-20%

# The main list resumes, starting 6 compounds before the break.
SMILES,Vaccinia mCherry,Vaccinia Venus
Cc1nc2ccccc2n1CC(=O)OCC(=O)NCCc1ccccc1,nt,11%
Cc1ccc(S(=O)(=O)Nc2cc(C(F)(F)F)ccc2N2CCOCC2)cc1C,-9%,-9%
Cc1ccc(/C=N/NC(=O)CN2CCN(Cc3ccccc3Cl)CC2)o1,i,20%
Nc1cccc(-c2ccc(CO)o2)c1,-5%,-9%
O=C1NC2(CCCc3ccccc32)C(=O)N1CCOc1ccc(Br)cc1 (stereo not drawn),-35%,-22%
COc1ccc(CCC(=O)O)c(O)c1,i,-1%
O=C1CSC(c2cccc([N+](=O)[O-])c2)N1CCc1ccccc1 (stereo not drawn),i,-13%
CN[C@@H](C)C(=O)NC[C@H]1O[C@@H](n2cnc3c(=O)[nH]c(N)nc32)[C@H](O)[C@@H]1O,2%,-5%
CCCCc1nc2ccc(F)cc2cc1C,16%,6%
Cc1onc(-c2ccccc2)c1C(=O)NC(=S)NNC(=O)c1ccccc1O,?,?
Cc1ccc(S(=O)(=O)NC(CC(=O)N2CCC3(CC2)OCCO3)c2ccco2)cc1 (stereo not drawn),nt,-7%
COc1ccc(N2CCN(C(=O)NCc3ccc(C)cc3)CC2)cc1,?,-30%
CN1CCN(c2ccc(C(=O)c3cn(-c4ccc(F)c(Cl)c4)nn3)cc2)CC1,-3%,-3%
COc1ccc(Cl)cc1C(=O)NNC(=O)CSc1nncn1C,-19%,12%
COc1ccccc1N1CCN(C(=O)c2ccc3[nH]c4c(c3c2)CC(C)CC4)CC1 (stereo not drawn),-25%,-10%
Cc1ccc(-n2ncc3c(=O)[nH]c(SCC(=O)N4CCCC4)nc32)cc1C,i,-15%
O=C(CN1CCN(S(=O)(=O)c2ccc3ccccc3c2)CC1)NC(=O)NC1CCCCC1,?,?
Cc1nn(-c2ccccc2)c(C)c1/C=N/NC(=O)c1cc(C(C)(C)C)[nH]n1,nt,?
COc1ccc(OC)c(CNCc2c(C(=O)O)n(Cc3ccccc3)c3cc(OC)ccc23)c1,-5%,-6%
CCOCCCN(Cc1ccco1)S(=O)(=O)c1cc2c(cc1Cl)NC(=O)CO2,i,-11%
CCOC(=O)C1=C(C)c2ccccc2OC1C(=O)OCC (stereo not drawn),-1%,0%
